# Source: PubChem BioAssay (National Center for Advancing Translational Sciences (NCATS))
# Rango-impB inh – inhibitors of Rango-importin beta complex formation; Q14974; Rango CFP/YFP FRET sensor + importin beta, 45 min; Potency, µM (top dose mostly 92.2 µM), inactives show at the highest dose inhibition of complex formation; actives 0.031% (n = 340,000); AID 540263; active = rising FRET ratio curve, often small or poorly fitted; inconclusive = mostly compound fluorescence or quenching in the first reads; inactive = flat curves in all reads;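 further: potency means the concentration at half of the fitted maximal effect; 0% = DMSO wells and 100% = buffer wells lacking importin beta; nearly all actives have a fitted effect of over 15% in size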
# Target sequence (Q14974 whole entry, looked up): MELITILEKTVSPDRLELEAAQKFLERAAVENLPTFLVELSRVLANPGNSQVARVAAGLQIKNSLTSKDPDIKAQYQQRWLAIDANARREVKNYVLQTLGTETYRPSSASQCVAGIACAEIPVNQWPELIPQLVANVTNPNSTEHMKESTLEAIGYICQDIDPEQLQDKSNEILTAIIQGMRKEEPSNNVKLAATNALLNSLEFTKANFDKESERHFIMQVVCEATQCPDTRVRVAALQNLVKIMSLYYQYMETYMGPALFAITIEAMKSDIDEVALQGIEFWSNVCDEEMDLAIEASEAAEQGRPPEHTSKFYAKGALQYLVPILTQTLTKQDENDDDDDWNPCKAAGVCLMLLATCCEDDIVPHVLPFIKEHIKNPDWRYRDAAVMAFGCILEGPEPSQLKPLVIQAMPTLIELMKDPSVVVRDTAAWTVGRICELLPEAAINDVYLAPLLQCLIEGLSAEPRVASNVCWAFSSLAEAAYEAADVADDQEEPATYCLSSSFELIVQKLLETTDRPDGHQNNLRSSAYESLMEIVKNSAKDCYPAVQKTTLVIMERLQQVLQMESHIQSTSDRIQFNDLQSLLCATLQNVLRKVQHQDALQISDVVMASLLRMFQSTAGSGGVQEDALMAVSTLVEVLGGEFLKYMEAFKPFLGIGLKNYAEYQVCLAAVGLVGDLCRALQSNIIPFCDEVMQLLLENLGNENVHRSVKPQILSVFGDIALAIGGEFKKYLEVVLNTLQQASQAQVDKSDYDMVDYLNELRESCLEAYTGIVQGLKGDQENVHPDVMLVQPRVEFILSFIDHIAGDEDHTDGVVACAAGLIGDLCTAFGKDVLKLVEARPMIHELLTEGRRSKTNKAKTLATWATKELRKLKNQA
#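 Inhibition scored from the CFP 486 nm/YFP 530 nm FRET ratio 45 min after adding 0.125 microM importin beta to 50 nM Rango biosensor preincubated 5 min with compound (room temperature, PBS with DTT, Tween-20, BSA). No-importin wells as positive control.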
# Rango dissoc inh – inhibition of RanGTP-driven Rango-importin beta dissociation | O95149+P62826 | Biochemical FRET Rango-importin beta, RanGTP-induced dissociation | Potency, µM (series often up to 46.1 µM), without a hit: top-dose activity change, negative = inhibition | actives 0.071% (n = 340,000) | AID 540253; active means falling FRET ratio curve, often poorly fitted, with flat reads before Ran was added; inconclusive means other falling curves, or compound fluorescence or quenching; inactive means flat or rising ratio curve;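 further: potency means the concentration at half of the fitted maximal effect; % of control where 0% means no effect; nearly all actives have a fitted effect of over 45% in size; -100% = wells without RanGTP and RCC1; the record marks most hits as doubtful in a second field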
#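 Rango/importin beta premix (0.1/0.25 uM final), PBS + 1 mM DTT + 0.02% Tween-20 + 0.1% BSA; cpd 5 min RT; FRET pre-read; + RanGTP-RCC1 (0.6 uM Ran, 2 mM GTP, 0.2 uM RCC1); 45 min RT; FRET post-read, ex 430, em 486/530 nm.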
# miR-21 reporter – miR-21 reporter, rising signal; 340,000 tested, under 10 active; Potency, µM (highest dose often 38.3 µM), without a hit: at the top dose reporter change, positive = more light; HeLa miR-21 FLuc reporter, luciferase, 48 h; active = well fitted rising curve with a large enough effect; inconclusive = small, poorly fitted or top-dose-only effect; inactive = no such curve, though single readings can be large or run the other way;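 further: % of control where 0% means no effect; miR-21 action dims this reporter so a rising signal means less miR-21 action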
#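 HeLa miR-21-FLuc reporter line, endogenous miR-21; 2000 cells/well in DMEM/10% FBS; compound titration up to ~40uM final, 48 h, 37 degree Celsius; luciferase detection reagent, 15 min lysis, CCD luminescence.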
# GLA inh pH 4.5 – inhibitors of human alpha-galactosidase A at pH 4.5. P06280. purified enzyme, 4-MU-alpha-Gal fluorescence, pH 4.5. activity change, negative = inhibition, % at 105 µM. 230,000 tested, under 10 active. AID 1467; inconclusive = small, poorly fitted or top-dose-only inhibition, or a rising curve; inactive = flat fitted curve, though single readings scatter; no compound was filed as active;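 further: 0% = full activity with enzyme and -100% = basal without enzyme; dose as in the result columns while the protocol names 77 µM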
# The depositor's hits bear a star; ? = inconclusive; . = no result given; & = joins results of further samples. This is a subset, so the mix of outcomes need not match the whole.
SMILES,Rango-impB inh,Rango dissoc inh,miR-21 reporter,GLA inh pH 4.5
COc1ccc(-c2nc(CS(=O)(=O)CC(=O)NC3CCC(C)CC3)c(C)o2)cc1 (stereo unspecified),-3.7%,7%,-7%,.
O=C1C=C(O)CC(c2ccco2)C1 (stereo unspecified),5.0%,0%,-4%,-1
COc1ccccc1CCNS(=O)(=O)CCNC(=O)c1ccccc1,-4.9%,-4%,.,.
O=C(NCCc1ccccn1)c1ccc(S(=O)(=O)N2CCCCCC2)cc1,-3.0%,1%,-8%,-2
Cn1nnnc1SCC(=O)N1CCCc2ccccc21,-0.6%,-9%,-2%,-4
CN(C)c1cccc2c(C=C(C#N)C#N)ccc(N(C)C)c12,0.3%,1%,-2%,-13
C=CCOc1ccc(C2NC(=S)NC(c3ccccc3)=C2C(C)=O)cc1OC (stereo unspecified),0.0%,15%,0%,0
Cc1ccc(C(=O)O)c(C(=O)Nc2nc(C)cs2)c1,?,4%,0%,0
Cc1ccccc1-c1nnc(-c2cccc3ccccc23)o1,-2.5%,27%,.,.
N#C/C=C(/N)N1CCN(c2ccc(Cl)c(Cl)c2)CC1,2.7%,-8%,-5%,-6
CCN(C(=O)CSc1n[nH]c(-c2cc(Cl)ccc2OC)n1)C1CCS(=O)(=O)C1 (stereo unspecified),0.5%,17%,.,.
COc1ccc(NC(=O)Nc2c(O)ccc3ccccc23)cc1,-0.2%,-4%,.,.
O=C1CN(S(=O)(=O)c2cccc(C(=O)O)c2)c2ccccc2N1,-2.6%,10%,1%,.
Clc1ccc(C2CC(c3cccs3)n3ncnc3N2)cc1 (stereo unspecified),-3.3%,15%,-6%,-5
CCC1CCCCN1CCCNC(=O)C1CCN(c2ncnc3c2nc2n3CCCCC2)CC1 (stereo unspecified),-4.1%,24%,-5%,.

# Among those listed so far, these have a Cl atom.
SMILES,Rango-impB inh,Rango dissoc inh,miR-21 reporter,GLA inh pH 4.5
N#C/C=C(/N)N1CCN(c2ccc(Cl)c(Cl)c2)CC1,2.7%,-8%,-5%,-6
CCN(C(=O)CSc1n[nH]c(-c2cc(Cl)ccc2OC)n1)C1CCS(=O)(=O)C1 (stereo unspecified),0.5%,17%,.,.
Clc1ccc(C2CC(c3cccs3)n3ncnc3N2)cc1 (stereo unspecified),-3.3%,15%,-6%,-5

# (continued)
SMILES,Rango-impB inh,Rango dissoc inh,miR-21 reporter,GLA inh pH 4.5
O=C(Oc1ccc2ccccc2c1)C1CCC1,-0.5%,-8%,-3%,.
O=S(=O)(Nc1ccc2c(c1)OCCO2)c1cccs1,-3.4%,10%,-22%,3
CCOC(=O)C1=C(CC)Nc2ccccc2N/C1=N\S(=O)(=O)c1ccccc1OC,-0.2%,4%,.,.
CC(NCC(=O)NC(=O)NCCC1=CCCCC1)c1ccc(S(N)(=O)=O)cc1 (stereo unspecified),2.6%,0%,.,.
CCOc1ccc(NC(=O)CN2CCN(C3c4ccccc4-c4ccccc43)CC2)cc1,0.7%,-10%,2%,-7
CC(=O)c1ccc(NC(=O)C2CCN(S(=O)(=O)c3cccc4nonc34)CC2)cc1,-1.8%,6%,0%,.
C/C=C\C=C/C(=O)Nc1cccc(C2=NOC3(C2)C[C@H](C(N)=O)N(C(=O)c2ccc(OC)cc2)C3)c1 (stereo partly specified),0.1%,-5%,5%,-6
CCCCSc1nnc(-c2ccccc2N)c(=O)[nH]1,-2.5%,-2%,-40%,-20
CCOc1ccc(-c2n[nH]c(C)c2Oc2ccccc2OC)c(O)c1,-5.5%,-1%,-6%,3
CC(=O)C1(C)CCC2C3C=C(C)C4=CC(=O)CCC4(C)C3CCC21C (stereo unspecified),-0.9%,-13%,.,.
CC1(C#N)c2ccccc2C(Br)=CN1C(=O)c1ccccc1 (stereo unspecified),0.3%,-2%,.,.
CC1(C)CC(CC(=O)Nc2nccs2)(c2ccccc2)CCO1 (stereo unspecified),?,-7%,8%,-6
CCCCn1c(N)c(N(CCC)C(=O)C2CCCC2)c(=O)[nH]c1=O,-1.3%,2%,.,.
O=C(C1CCC1)N1CCN(S(=O)(=O)c2ccccc2)CC1,-0.2%,0%,.,.
COc1ccc(Nc2oc(-c3ccc(Cl)cc3)nc2C#N)cc1,0.3%,-1%,-22%,-9

# Three structures already listed, ordered by heavy-atom count, lowest first.
SMILES,Rango-impB inh,Rango dissoc inh,miR-21 reporter,GLA inh pH 4.5
CCCCSc1nnc(-c2ccccc2N)c(=O)[nH]1,-2.5%,-2%,-40%,-20
CC(=O)C1(C)CCC2C3C=C(C)C4=CC(=O)CCC4(C)C3CCC21C (stereo unspecified),-0.9%,-13%,.,.
CCOC(=O)C1=C(CC)Nc2ccccc2N/C1=N\S(=O)(=O)c1ccccc1OC,-0.2%,4%,.,.

# Next section
SMILES,Rango-impB inh,Rango dissoc inh,miR-21 reporter,GLA inh pH 4.5
CC1(c2ccccc2)C(C#N)C(=O)NC(=O)C1C#N (stereo unspecified),-2.1%,-1%,.,.
COC(=O)c1sc(NC(=O)c2ccncc2)nc1C,3.4%,-4%,-2%,.
O=C(CN1C(=O)CSc2cc(S(=O)(=O)N3CCCCCC3)ccc21)NCCc1ccccc1,1.5%,0%,0%,12
N#Cc1cccc(NC(=O)COC(=O)C2CCC2)c1,2.5%,4%,.,.
Cc1nc(N2CCN(C(=O)c3cccs3)CC2)c2c3c(sc2n1)CCCC3,-1.1%,0%,28%,.
COC(=O)c1sccc1NC(=O)c1ccoc1C,3.9%,3%,-2%,-5
Cc1ccccc1NC(=O)C(C)c1cccc(C(=O)c2ccccc2)c1 (stereo unspecified),-1.4%,-8%,0%,-24
CC(Oc1ccc(F)cc1)C(=O)Nc1cc(S(=O)(=O)N2CCCCC2)ccc1N1CCN(C)CC1 (stereo unspecified),0.0%,11%,.,.
CCC(Oc1ccccc1)C(=O)Nc1ccc(S(=O)(=O)Nc2cnc3ccccc3n2)cc1 (stereo unspecified),-2.2%,0%,-4%,-2
Cc1ccc(-c2nc(N/N=C/c3cccc([N+](=O)[O-])c3)c3ccccc3n2)cc1,?,-10%,-12%,.
CCOc1ccc(NS(=O)(=O)c2ccc(OCC(=O)NCc3ccncc3)cc2)cc1,-5.6%,-12%,0%,.
CCOc1ccccc1/C=C(/C#N)C(N)=O,-1.8%,1%,0%,3
CN(C)C(=O)CSc1nnc(Cc2ccc([N+](=O)[O-])cc2)o1,3.8%,4%,-3%,3
COc1ccc(C(=O)NC(=S)NCc2cccnc2)cc1OC,1.9%,9%,1%,-24
COc1cc(NC(=O)CCc2nnc3ccc(N4CCC5(CC4)OCCO5)nn23)cc(OC)c1,-3.1%,5%,0%,.
C/C(=N\NS(=O)(=O)c1ccccc1)c1cccc(NC(=O)c2cccc(Cl)c2)c1,0.1%,10%,-22%,3
CC(C)CNS(=O)(=O)c1ccc(CCC(=O)N2CCN(Cc3ccccc3)CC2)cc1,-1.6%,12%,19%,0
CCOC(=O)C1CCCN(C(=O)c2cc(S(=O)(=O)N3CCCCC3)ccc2C)C1 (stereo unspecified),0.3%,3%,10%,-2
CCOc1ccc(N=C2NC(=O)SC2CC(=O)OC)cc1 (stereo unspecified),-2.7%,-2%,-7%,5
CCn1c(-c2nonc2NC(=O)c2ccccc2)nc2ccccc21,9.5%,?,1%,-6
NC(N)=NC(N)=Nc1cccc(Cl)c1,-0.2%,1%,3%,-6&5&0
Cc1ccc(S(=O)(=O)Cc2ccc(C(=O)NCCc3ccccc3)o2)cc1,2.5%,4%,0%,.
C[C@@H]1CN([C@H](C)CO)C(=O)c2cc(NC(=O)Nc3ccc(C(F)(F)F)cc3)ccc2O[C@H]1CN(C)S(=O)(=O)c1ccccc1,-2.3%,9%,.,.
CCc1ccc(N(CC(=O)NC(C)(C)C)C(=O)CNC(=O)c2cccs2)cc1,-2.3%,0%,0%,.
Cc1ccc2c(c1)N(Cc1cccc(C#N)c1)C=NS2(=O)=O,0.2%,6%,0%,.
Cc1ccc(S(=O)(=O)NCC(=O)OCc2cc(=O)oc3c(C)c(C)ccc23)cc1C,-1.8%,0%,.,.
CN(C)CC/C=C1/c2ccccc2Sc2c(O)cc(Cl)cc21,0.2%,5%,1%,6
N#Cc1cccc(C(=O)Nc2cc(S(=O)(=O)N3CCOCC3)ccc2N2CCCC2)c1,8.3%,-1%,.,.
Cc1ccc(OCC(=O)NNC(=O)c2cc3ccccc3o2)cc1C,1.4%,2%,-10%,-22
O=C(O)CCc1ccc(-c2cccs2)n1NC(=O)c1ccccc1Br,?,?,-6%,-4

# Exported with two lines to a compound: 3 of the compounds above.
# Below each compound: Rango-impB inh	Rango dissoc inh	miR-21 reporter	GLA inh pH 4.5
CN(C)CC/C=C1/c2ccccc2Sc2c(O)cc(Cl)cc21
 : 0.2%	5%	1%	6
N#Cc1cccc(C(=O)Nc2cc(S(=O)(=O)N3CCOCC3)ccc2N2CCCC2)c1
 : 8.3%	-1%	.	.
Cc1ccc(OCC(=O)NNC(=O)c2cc3ccccc3o2)cc1C
 : 1.4%	2%	-10%	-22

# The list goes on.
SMILES,Rango-impB inh,Rango dissoc inh,miR-21 reporter,GLA inh pH 4.5
Cc1cc(C)n(CC(=O)N2CCCC(N3CCN(Cc4ccc5c(c4)OCO5)CC3)C2)n1 (stereo unspecified),1.0%,1%,-3%,.
CCN(CC)c1ccc(/C=N/NC(=O)c2c[nH]c3ccccc23)cc1,2.1%,-3%,-13%,-2
O=C(Nc1ccccc1F)C(=O)c1cn(CC(=O)N2CCCCC2)c2ccccc12,0.1%,8%,-12%,-11
CCN1CCN(S(=O)(=O)c2cc(OC)ccc2OC)CC1,3.0%,-8%,-9%,5
Cc1n[nH]c(=O)c2c(NC(=O)CSc3nnnn3-c3ccc(O)cc3)oc(C)c12,?,-13%,.,.
NC(=O)COc1ccc2oc(=O)cc(-c3cc4ccccc4o3)c2c1,-0.4%,11%,-4%,.
CCCCC(CC)C(=O)Nc1cc(=O)[nH]c2nc3ccccc3n12 (stereo unspecified),-1.2%,2%,0%,.
CCCCN(CCCC)c1ccc(C(=O)c2ccccc2C(=O)O)c(O)c1,-0.6%,9%,6%,-12
CC1(C)NC(=O)N(CCOCCOc2ccccc2-c2ccccc2)C1=O,0.5%,-1%,-5%,-6
COc1ccc(-n2nc(C(=O)NCC(=O)NCCc3ccc(OC)c(OC)c3)c3ccccc3c2=O)cc1,-0.1%,3%,13%,.
CCOc1nnnc2c1sc1nc(N3CCOCC3)c3c(c12)CCCC3,-3.6%,4%,-5%,6
Cc1coc2cc3oc(=O)c(CC(=O)N(C)CC(=O)O)c(C)c3cc12,-2.2%,6%,-2%,.
CCN=C(Nc1cccc(F)c1)SC1CC(=O)N(c2ccc(OC)cc2)C1=O (stereo unspecified),-0.1%,-2%,14%,-3
Cc1[nH]n(-c2ccccc2)c(=S)c1C=Nc1ccc([N+](=O)[O-])cc1,0.3%,4%,12%,-3
CC(C)(C)c1ccc(C(CC(=O)O)NC(=O)C23CC4CC(CC(C4)C2)C3)cc1 (stereo unspecified),1.3%,19%,-7%,.
COc1cccc(OCCOCCN(C)CCO)c1,?,?,-9%,3
Fc1ccc(-c2nnc(Cc3ccc(Cl)cc3)o2)cc1,-3.3%,0%,-64%,-5
CC(=O)Nc1ccc(S(=O)(=O)NCC2CCC(C(=O)N3CCN(c4ccccn4)CC3)CC2)cc1 (stereo unspecified),-0.2%,23%,3%,7
COc1cc(OC)cc(C(=O)N[C@H](C(=O)Nc2ccccc2N2CCOCC2)C(C)C)c1,1.5%,0%,-3%,2
COC(=O)c1ccc(CSc2nc3ccccc3[nH]2)o1,-0.6%,-22%,-40%,6
COc1ccc(C(=O)O)cc1S(=O)(=O)Nc1ccc(N2CCCCC2)cc1,-4.3%,7%,.,.
Cc1ccc(NC(=O)C2CCN(S(=O)(=O)c3cccc4nonc34)CC2)cc1,0.2%,6%,-3%,.
CC(=O)c1cc(CCC(=O)NC2CCCCCC2)oc1C,0.2%,-9%,-4%,.

# Single records, from the list above. Values in the order: Rango-impB inh | Rango dissoc inh | miR-21 reporter | GLA inh pH 4.5
# Listed for COc1cccc(OCCOCCN(C)CCO)c1 → ? | ? | -9% | 3
# Listed for COc1ccc(C(=O)O)cc1S(=O)(=O)Nc1ccc(N2CCCCC2)cc1 → -4.3% | 7% | . | .
